Sa growth 42C: blocks Staphylococcus aureus growth | AID 720641 | S. aureus RN4220 growth, OD600, 20 h, 42 °C; active compounds read low | relative growth, % (concentration not given with the values) | actives 0.53% (n = 170,000);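 active = growth at 42 °C up to 50% and 20 or more points under that at 30 °C, or under 10% at both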;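 also: 300 nL library stock went into each well; scaled to the means of positive and negative controls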
HCMV NEC inh: disrupts HCMV UL50-UL53 complex binding; HTRF UL50-UL53 interaction, normalized percent inhibition; inhibition, % (concentration not given with the values); actives 0.15% (n = 190,000);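 active = both replicates at 50% or more, plus weaker picks with an unusually low signal ratio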;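 also: stock transfer was 100 nL into about 20 µL; 0% = negative control wells and 100% = wells with untagged competitor protein; inactives centre near -12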
GIV-Gai inh: inhibitors of GIV GBA-motif binding to rat Galpha-i3; percent of control (FP), % (no concentration beside the values); actives 0.42% (n = 210,000); Galpha-i3/FITC-GIV peptide fluorescence polarization, 90 min; active compounds read low; scaled: aluminum fluoride 0%, vehicle 100%;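 active = replicate mean at 85% of control or lower, very high polarization wells dropped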;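 also: wells of about 15 µL received 100 nL stock; the first replicate is given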
Target sequence (P08753 whole entry, looked up): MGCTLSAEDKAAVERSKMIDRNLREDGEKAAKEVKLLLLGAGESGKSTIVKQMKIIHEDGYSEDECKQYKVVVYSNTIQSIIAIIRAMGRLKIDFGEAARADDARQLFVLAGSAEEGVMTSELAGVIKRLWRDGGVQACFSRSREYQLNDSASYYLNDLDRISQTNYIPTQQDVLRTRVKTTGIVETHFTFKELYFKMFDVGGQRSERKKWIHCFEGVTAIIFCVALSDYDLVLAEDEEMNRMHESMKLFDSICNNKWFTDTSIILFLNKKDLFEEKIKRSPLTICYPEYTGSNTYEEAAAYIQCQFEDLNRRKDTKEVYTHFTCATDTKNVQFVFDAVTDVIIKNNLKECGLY
Sa growth 42C second temp: second read-out of Sa growth 42C, no call of its own (marks repeat the call); relative growth, %; measured here: growth at 30 °C;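 optical density after 20 h as mean of two plates; 100% = untreated growth and lower means inhibition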
Starred values were filed as active, the others as inactive; nt = no result given; & = joins results of further samples.

SMILES	Sa growth 42C	Sa growth 42C second temp	HCMV NEC inh	GIV-Gai inh
Cc1cc(=O)oc2cc(OCC(=O)Nc3ccc(O)c(C(=O)O)c3)ccc12	107	88	-11	105
O=C(CSc1nccn1Cc1ccc2c(c1)OCO2)Nc1ccccc1F	120	95	nt	101
CNC(=O)c1ccc(-c2nc(CN3CCN(C(=O)Nc4cccc(C)c4)CC3)c(C)o2)cc1	nt	nt	-24	103
Cc1[nH]c(=O)c(C#N)cc1-c1ccccc1	nt	nt	-12	104
Cc1cc(Cl)ccc1NC(c1cccnc1)c1ccc2cccnc2c1O (stereo not given)	nt	nt	-57	103
Cc1cccc(OCCCn2c(CO)nc3ccccc32)c1	nt	nt	5	105
CCOC(=O)c1c(SC)nc2c(Cl)cccc2c1N(C)CCO	106	89	7	103
COc1ccc(N2C(=O)NC(=O)/C(=C\c3cc(C)n(-c4cccc([N+](=O)[O-])c4)c3C)C2=O)cc1	nt	nt	-23	106
O/N=C(\c1ccccc1)c1nonc1/C(=N/O)c1ccccc1	56	42	-31	105
Cc1c(Cl)cccc1NC(=O)CC(NCc1ccccn1)C(=O)O (stereo not given)	96	96	nt	103
COC(=O)c1ccc2c(=O)n(CCCC(=O)O)c(=S)[nH]c2c1	99	82	-39	101
Cc1cc(N2CCCCC2)nc2ccc(NC(=O)c3ccc(Br)o3)cc12	67	42	-15	113
COc1cc(SC)ccc1C(=O)N1CCC(C(N)=O)CC1	90	98	-2	103
Cc1nn(CCC#N)c2nc(C(F)(F)F)[nH]c(=O)c12	138&102	92&99	2&-11	nt
O=C(/C=C/c1ccco1)NCCc1csc2nc(-c3ccc(F)cc3)nn12	108	74	-29	106
Clc1ccc(-c2cnc3nonc3n2)cc1	0.0*	-0.3*	-76	102
CCc1ccc(N(C)S(=O)(=O)c2ccc3[nH]cc(C(=O)N4CCCCCC4)c(=O)c3c2)cc1	98	88	nt	107
CC(C)NC(=O)c1ccc2c(c1)S(=O)(=O)c1ccccc1C2=O	124	74	-106	nt
CC(=O)N1CCCSc2ccc(S(=O)(=O)N3CCSc4ccccc43)cc21	nt	nt	6	104
O=C(O)CC(NC(=O)C(c1ccccc1)c1ccccc1)c1ccco1 (stereo not given)	118	84	nt	102
Cc1ccc(Cc2nc3ccccc3nc2SCC(=O)N2CCN(c3ccccc3)CC2)cc1	100	87	nt	98
Cc1nn(C(=O)Nc2ccc(Br)cc2F)c2ccccc12	nt	nt	10	101
CC(=O)OC(COc1ccccc1)Cn1cnc2ccccc21 (stereo not given)	92	93	8	nt
COC(=O)c1ccccc1NC(=O)C1Cc2cc(S(=O)(=O)N3CCCC3)ccc2N1C(C)=O (stereo not given)	nt	nt	-18	97
CCOC(=O)N1CCN(C(=O)c2cc(-c3cccc(OC)c3)n[nH]2)CC1	102	98	-9	113
Nn1c(SCC(=O)N(Cc2ccco2)C2=CCCCC2)nnc1-c1ccc(OC(F)F)cc1	117	96	2	nt
O=C(O)CCC(=O)N1N=C(c2c(-c3ccccc3)c3cc(Cl)ccc3[nH]c2=O)CC1c1ccccn1 (stereo not given)	nt	nt	-36	103
O=C(O)c1cc(=O)c2c(O)cccc2o1	80	92	-34	102
CCOC(=O)c1c(NC(=O)c2sc3cccc(Cl)c3c2Cl)sc2c1CCCC2	nt	nt	-16	101
Cn1ccnc1SCC(=O)c1ccc2ccccc2c1	121	92	-94	nt
COc1cc(SC)ccc1C(=O)NN1CCOCC1	94	90	3	nt
CCOc1cc(OCC)cc(C(=O)Nc2ccc3oc(-c4cccc(F)c4)nc3c2)c1	nt	nt	-7	102
COCCNC(=O)c1ccc2c(Cl)c3c(nc2c1)CCCC3	106	86	-75	105
O=C(Cn1nc(N2CCN(c3ccccc3)CC2)ccc1=O)NCCCN1CCCC1	nt	nt	-34	103
O=C(CCCCn1c(=O)c2ccccc2n(Cc2ccc(F)cc2Cl)c1=O)NCCc1ccc(Cl)cc1	107	98	6	104
COc1ccc(NC(=O)C2CCCN2S(=O)(=O)c2ccc3c(c2)CCCC(=O)N3)cc1 (stereo not given)	nt	nt	0	112
CC(C)CCNC(=O)CN1CCOc2ccccc21	120	95	nt	99
Cc1noc2c1C(c1ccc(F)cc1)C1=C(CC(c3ccccc3)CC1=O)N2 (stereo not given)	nt	nt	-14	105
CCC1(CC)Cc2ccccc2C(Nc2c(C)n(C)n(-c3ccccc3)c2=O)=N1	106	82	nt	102
CN(C)c1cnn(-c2cnc3ccccc3n2)c(=O)c1Cl	92	90	-148	102

Full records, looked up by structure. Screens in order: Sa growth 42C, Sa growth 42C second temp, HCMV NEC inh, GIV-Gai inh
CC(C)NC(=O)c1ccc2c(c1)S(=O)(=O)c1ccccc1C2=O is listed with 124, 74, -106, nt
COc1cc(SC)ccc1C(=O)N1CCC(C(N)=O)CC1 is listed with 90, 98, -2, 103
CNC(=O)c1ccc(-c2nc(CN3CCN(C(=O)Nc4cccc(C)c4)CC3)c(C)o2)cc1 is listed with nt, nt, -24, 103
COCCNC(=O)c1ccc2c(Cl)c3c(nc2c1)CCCC3 is listed with 106, 86, -75, 105
O=C(O)CCC(=O)N1N=C(c2c(-c3ccccc3)c3cc(Cl)ccc3[nH]c2=O)CC1c1ccccn1 (stereo not given) is listed with nt, nt, -36, 103

Next section.
SMILES	Sa growth 42C	Sa growth 42C second temp	HCMV NEC inh	GIV-Gai inh
CSC(=S)N/N=C(\C)c1ccccc1	65	51	-22	nt
CCOc1ccc2[nH]c(=O)c(CN(CC3COCCO3)C(=O)C3CC3)cc2c1 (stereo not given)	121	106	-10	103
O=C(CSc1nccn2nc(-c3ccccc3)cc12)Nc1ccc(Br)cc1	nt	nt	-11	101
O=C(N[C@@H](Cc1ccccc1)c1nc2ccccc2[nH]1)c1ccc(=O)[nH]c1	93	93	-10	nt
Cc1nnc2n1N=C(c1ccc(-c3cc(Cl)ccc3Cl)o1)CS2	80	88	-12	108
CCN1CCN(C(=O)C(Cc2ccccc2)NS(=O)(=O)c2ccc3c(c2)c(=O)n(C)c(=O)n3C)CC1 (stereo not given)	91	90	-26	104
CCOC(=O)N1CCC(N2Cc3cccc(C(=O)NCc4ccc5c(c4)OCO5)c3C2=O)CC1	94	88	-1	98
Clc1cccc(-n2ncc3c(N4CCCCC4)ncnc32)c1	128	100	nt	112
Cc1cnc(C(=O)OCC(=O)C(C)(C)C)cn1	96	93	-4	nt
CCc1ccc2c(c1)c(=O)c(S(=O)(=O)c1ccc(F)cc1)cn2CC(=O)Nc1ccc(C)cc1C	71	81	-11	111

An excerpt from above in order of molecular weight, ascending:
SMILES	Sa growth 42C	Sa growth 42C second temp	HCMV NEC inh	GIV-Gai inh
O=C(/C=C/c1ccco1)NCCc1csc2nc(-c3ccc(F)cc3)nn12	108	74	-29	106
CCc1ccc2c(c1)c(=O)c(S(=O)(=O)c1ccc(F)cc1)cn2CC(=O)Nc1ccc(C)cc1C	71	81	-11	111
CCN1CCN(C(=O)C(Cc2ccccc2)NS(=O)(=O)c2ccc3c(c2)c(=O)n(C)c(=O)n3C)CC1 (stereo not given)	91	90	-26	104

New compounds follow
SMILES	Sa growth 42C	Sa growth 42C second temp	HCMV NEC inh	GIV-Gai inh
CC(=O)N=c1sc(S(N)(=O)=O)nn1C	95	93	-21&-17&-5&-44	nt
O=C(NC1CCCC1)N1CCN(Cc2nc3ccc(Cl)cc3o2)CC1	nt	nt	-14	106
CC(C)(C)C(=O)C(CO)(Oc1ccc(Cl)cc1)n1cncn1 (stereo not given)	92	95	-11	nt
CCOC(=O)c1c(C)[nH]c(C)c1S(=O)(=O)N(C)CC(=O)Nc1cc(Cl)ccc1OC	95	93	nt	109
Cc1oc(-c2ccccc2)nc1CSc1nncn2c1cc1sccc12	99	77	-166	105
Clc1cc(N=Cc2ccccn2)c(Cl)cc1N=Cc1ccccn1	109	92	2	nt
CCOC(=O)c1sc2nc(C)nc(NCCC3=CCCCC3)c2c1C	nt	nt	-22	97
O=C(NCc1ccco1)c1ccc(-n2c(=S)[nH]c3ccccc3c2=O)cc1	109	85	nt	107
O=C(O)CONC1=NS(=O)(=O)c2ccccc21	90	93	-3	nt
O=C(NCc1ccccc1)c1cc2ccc3cccnc3c2[nH]1	84	91	nt	99
O=C(CSc1ncc(CO)n1Cc1ccc(Cl)cc1)N1CCN(c2ccccc2)CC1	89	77	-30	106
CCOC(=O)c1ccc(NC(=O)CSc2nc3cc4ccccc4cc3[nH]2)cc1	105	94	-8	102
Cc1ccc(S(=O)(=O)CCC(=O)Nc2ccc(S(N)(=O)=O)cc2)cc1	105	100	10	109
O=C(NCC1COc2ccccc2O1)Nc1ccccc1F (stereo not given)	92	72	-21	nt
Cc1c(C)c(C)c2[nH]c(SCc3nc(-c4ccc(Cl)cc4)no3)nc2c1C	82	91	0	98
O=C(O)CC1(CC(=O)O)CCCC1	95	86	-8	97
Cc1ccc(N2C(=O)CCS2(=O)=O)cc1S(=O)(=O)Nc1ccc(C(C)(C)C)cc1	nt	nt	1	105
Cc1nc(-c2ccccc2)sc1C(N)=O	124	92	-64	101
COc1ccc(NC(=O)c2sc3nc4n(c(=O)c3c2C)CCC4)cc1Cl	105	99	3	83*
O=c1c2cc3c(nc2ncn1Cc1ccccc1F)CCCC3	82	86	nt	101
COc1ccc2c(c1)CCc1c-2n[nH]c1C(=O)O	85	106	9	110
Cn1cc(S(=O)(=O)N2CCCCC2)cc1C(=O)N1CCN(c2ccc(F)cc2)CC1	101	92	-23	99&108
CC1=CC(=C2C(=O)NC(=S)NC2=O)C=C(C)N1CC(C)C	120	98	-13	89
COc1ccc(CN2CCN(c3ncnc4scc(-c5ccc(Cl)cc5)c34)CC2)cc1F	106	101	nt	106
O=C(COC(=O)c1ccccc1)NC1CCCC1	93	101	1	nt
O=C(CN(c1cccc(Cl)c1Cl)S(=O)(=O)c1ccccc1)NCCSc1ccccn1	nt	nt	-10	102
CC(=O)Nc1ccc(Nc2cc(C)c(C#N)c3nc4ccccc4n23)cc1	110	108	-8	99
O=C(CC1CCS(=O)(=O)C1)NC1CCCCC1 (stereo not given)	94	88	-24	100
CCN(CC)c1ccc(/C=C2\C(=O)NC(=S)N(c3ccccc3C)C2=O)c(OC)c1	nt	nt	-9	107
CCOC(=O)c1c(C)c(S(=O)(=O)NC2CCCCC2)c(C)n1C	nt	nt	-10	102
CCN(CC)c1cc(Nc2ccc(Cl)cc2)c([N+](=O)[O-])c2nonc12	nt	nt	2	115
O=C(NCCc1ccccc1)C1CCN(c2nc3ccccc3nc2C(F)(F)F)CC1	85	87	nt	100
Cc1c(C(=O)N(C)C)sc2c1c(=O)n(-c1ccc(Cl)c(Cl)c1)c(=O)n2CC(=O)C(C)(C)C	99	87	nt	101
Cc1c(C(=O)N(Cc2ccccc2F)C2CCS(=O)(=O)C2)oc2ccccc12 (stereo not given)	113	77	-9	99
O=c1[nH]nc(N2CCOCC2)c(=O)[nH]1	97	84	nt	99
O=c1[nH]c(CCl)nc2scc(-c3ccccc3)c12	72	82	7	nt
CC(=O)Nc1ccc(C)cc1S(=O)(=O)NCCCn1c(-c2ccc(C)cc2)nc2cccnc21	nt	nt	-28	114
O=C(CN(C(=O)c1ccccc1)C1CCCCC1)Nc1nc(-c2ccccc2)cs1	88	84	-11	nt
O=C(CCC(=O)c1ccc[nH]1)c1ccc(Cl)cc1	85	95	-5	nt
COCCNC(=O)C1CCN(c2nnc(-n3cccc3)s2)CC1	101	91	-7	103
COc1ccc(NC(=O)c2c(NCc3ccc(C)o3)sc3c2CCC(C)C3)cc1 (stereo not given)	87	94	nt	107
COc1cc(C2c3c(-c4cc(C)ccc4O)n[nH]c3C(=O)N2Cc2cccnc2)cc(OC)c1OC (stereo not given)	102	86	-23	100
COc1ccc(C2CC(=O)c3c([nH]c(C(=O)OC4CCCC4)c3C)C2)cc1OC (stereo not given)	98	101	-2	105
Cc1cccc(S(=O)Cc2ccc(C(=O)NCc3ccccc3)o2)c1 (stereo not given)	98	87	-32	106
O=C1/C(=C/c2ccsc2)CC/C1=C\c1cccs1	nt	nt	-21	103
O=c1c(Cl)c(Nc2ccc(F)cc2)cnn1-c1ccccc1	99	90	-114	nt
Cc1ccccc1-c1nsc(SCC(=O)NC2CCCCC2)n1	124	88	nt	104
COc1cc(NC(=O)NCC2CCN(Cc3ccccc3Cl)CC2)cc(OC)c1OC	110	86	59	102
CNC(=O)c1c(N)sc2c1CCCCC2	106	50	-34	nt
CN(C)c1ccc(-c2nn3c(-c4ccc5ccccc5n4)nnc3s2)cc1	nt	nt	-34	104
Continuation:
SMILES	Sa growth 42C	Sa growth 42C second temp	HCMV NEC inh	GIV-Gai inh
C/C=C/Cn1c(N2CCNCC2)nc2c1c(=O)[nH]c(=O)n2C	nt	nt	1	110
Cc1ccc(-c2cc3c(SCC(=O)Nc4ccc5c(c4)OCO5)nccn3n2)cc1	nt	nt	-28	104
O=C(CSc1ncc2c(n1)-c1cc(Cl)ccc1N(Cc1ccccc1)S2(=O)=O)Nc1ccc(F)cc1F	106	68	nt	99
Cc1cc(Cl)ccc1NC(=O)C1CCCN(S(=O)(=O)c2ccc3c(c2)NC(=O)CO3)C1 (stereo not given)	nt	nt	-14	105
CC(Oc1ccc(F)cc1)C(=O)Nc1ccc2c(c1)NC(=O)CO2 (stereo not given)	nt	nt	-3	100
CC1CCN(C(=O)COC(=O)Cn2[nH]c(=O)c3ccccc3c2=O)CC1	77	89	-12	nt
Clc1ccc(/C=C/C2=Nc3cccc4cccc(c34)N2)cc1	104	76	nt	99
Cc1cc(C)cc(C(=O)NCC(=O)OCc2c(C)noc2C)c1	104	88	-7	nt
CC1=C(C(=O)N(C)C)C(c2ccc(Cl)cc2)NC(=O)N1 (stereo not given)	101	94	4	nt

Screens (PubChem BioAssay)
